# Polio RdRp inh – poliovirus RNA polymerase inhibition | AID 588519 | poliovirus polymerase elongation, fluorescence polarization; stronger effect = lower value | hit rate 0.66% among 150,000 | % elongation, % (compound at 16.7 µg/mL); in the data active = % elongation below about 90%; note: some results filed as inactive read as strong as hits
# Target sequence (P03300 1749-2209 limits assumed): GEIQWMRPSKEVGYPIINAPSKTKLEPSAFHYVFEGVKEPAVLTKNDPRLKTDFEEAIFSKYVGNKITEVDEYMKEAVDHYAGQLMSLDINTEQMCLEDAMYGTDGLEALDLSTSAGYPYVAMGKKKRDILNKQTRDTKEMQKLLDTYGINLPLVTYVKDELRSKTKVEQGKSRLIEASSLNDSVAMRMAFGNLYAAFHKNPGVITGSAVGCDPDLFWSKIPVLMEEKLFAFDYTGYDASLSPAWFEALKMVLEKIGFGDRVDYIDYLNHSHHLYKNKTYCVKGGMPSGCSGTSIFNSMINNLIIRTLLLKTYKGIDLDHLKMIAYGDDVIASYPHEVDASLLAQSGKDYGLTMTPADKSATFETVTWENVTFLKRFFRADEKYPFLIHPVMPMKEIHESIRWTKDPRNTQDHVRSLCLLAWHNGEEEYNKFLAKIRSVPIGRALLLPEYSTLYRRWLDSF
# Polio RdRp inh intensity – also measured in Polio RdRp inh; calls as there; % elongation; measured here: total intensity read-out; formula for this scale not given here;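 total fluorescence in place of polarization; lower means less elongation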
# * = called active by the depositor.
SMILES,Polio RdRp inh,Polio RdRp inh intensity
COc1ccc(NC(=O)c2oc3ccccc3c2NC(=O)c2cc(=O)c3cc(Cl)ccc3o2)cc1,109,111
COc1ccc(NC(=O)c2ccc3c(SCC(=O)O)c4c(nc3c2)CCCC4)cc1OC,106,103
CCc1c(C)c2cc3c(c(C)c2oc1=O)OCN(CCc1ccccc1F)C3,109,89
CCc1ccccc1NC(=O)Cn1c(=O)ccc2cc(S(=O)(=O)N3CCCC3)ccc21,113,117
CCCCN(CCCC)CCNC(=O)CN1C(=O)CSc2ccc(S(=O)(=O)N3CCOCC3)cc21,115,118
COc1ccccc1N1CCN(S(=O)(=O)c2ccc(-n3cnnn3)cc2)CC1,109,110
CCOc1ccc(OCC)c(NC(=O)c2cnc3c(-c4ccccc4)c(C)nn3c2C)c1,115,124
COc1ccccc1C(=O)CC1(O)C(=O)N(CC(N)=O)c2ccccc21 (configuration not stated),107,111
CCOc1ccc(NC(=O)CCNS(=O)(=O)c2cccc3nonc23)cc1,104,103
Cc1ccc(CN2C(=O)c3oc4ccc(C)cc4c(=O)c3C2c2ccc(O)cc2)cc1 (configuration not stated),109,109
CCOc1ccc(NC(=O)c2ccc3c(c2)c(C)c(C)n3Cc2ccc(F)cc2)cc1,110,104
Cc1ccccc1NC(=O)C1CCN(S(=O)(=O)c2c(C)noc2/C=C/c2ccco2)CC1,107,111
Cc1ccc(NC(=O)CN2C(=O)COc3ccc(S(=O)(=O)N4CCOCC4)cc32)c(Cl)c1,116,113
CCc1nnc2c(NCc3ccccc3)nc3ccccc3n12,106,108
CCN1c2cc(C)ccc2-n2cccc2C12CCN(C(=O)Nc1cc(OC)c(OC)c(OC)c1)CC2,104,105
Cc1ccc(C(=O)Nc2cccc3cccnc23)cc1Cl,108,113
COc1ccc(CC(=O)Nc2sc3c(c2C(=O)Nc2c(C)cccc2C)CCCCC3)cc1,105,104
COc1ccc(-n2c(SCC(=O)NCc3ccc(C)cc3)nc3n[nH]c(C)c3c2=N)cc1,108,107
CCc1ccc(-n2nc(C)c3c(C(=O)Nc4cc(OC)cc(OC)c4)cc(C)nc32)cc1,103,103
CC(C)c1cc(C(=O)NCc2ccccc2)no1,107,111
CCC(=O)N1c2ccccc2CC1C(=O)NCCCN1CCN(c2ccc(OC)cc2)CC1 (configuration not stated),108,109
O=C(NCc1ccc(Cl)cc1)C1CCC(CNS(=O)(=O)c2ccccc2)CC1 (configuration not stated),107,114
COc1ccccc1C(=O)Nc1ccc2oc(-c3cccc(Cl)c3Cl)nc2c1,100,101
CN(Cc1ccccc1)C(=O)c1cccc(NC(=O)c2nsc3ccccc23)c1,111,99
Cc1ccc(NS(=O)(=O)c2ccc3[nH]c(=O)oc3c2)c(C)c1,107,115
COc1ccccc1N1CCN(S(=O)(=O)CCNC(=O)COc2ccccc2F)CC1,111,108
CC(C)c1ccc(S(=O)(=O)c2nnn3c2nc(N2CCCC2)c2sccc23)cc1,110,114
COc1ccccc1NC(=O)c1cc2c(=O)oc3ccc(C)cc3c2s1,101,104
COc1ccc(OC)c(/C=C(\C#N)c2nc(-c3ccc(F)cc3)cs2)c1,137,159
CCn1c(SCC(=O)Nc2ccc(C)c(C)c2)nnc1-c1nonc1NC(C)=O,113,108
COc1ccccc1NC(=O)c1cc(S(=O)(=O)N2CCN(c3ccccc3Cl)CC2)ccc1F,105,111
COc1ccc2c(c1)Cc1sc(NC(=O)c3ccccc3Br)nc1-2,59*,63*
COc1ccc(NC(=O)c2c(C)oc3ccc(O)c(CN4CCCCCC4)c23)cc1Cl,102,93
COc1ccc(CNC(=O)C(CC(C)C)N2Cc3ccccc3C2=O)cc1 (configuration not stated),100,93
COc1cccc(CNC(=O)c2sc3nc(C)cc(C)c3c2-n2cccc2)c1OC,103,108
Cc1cccc(N2CCN(c3ccc(C(=O)O)cc3NC(=O)c3cccc(Cl)c3)CC2C)c1 (configuration not stated),102,109

# Overlap with the part before: five compounds; new compounds follow.
SMILES,Polio RdRp inh,Polio RdRp inh intensity
COc1ccc2c(c1)Cc1sc(NC(=O)c3ccccc3Br)nc1-2,59*,63*
COc1ccc(NC(=O)c2c(C)oc3ccc(O)c(CN4CCCCCC4)c23)cc1Cl,102,93
COc1ccc(CNC(=O)C(CC(C)C)N2Cc3ccccc3C2=O)cc1 (configuration not stated),100,93
COc1cccc(CNC(=O)c2sc3nc(C)cc(C)c3c2-n2cccc2)c1OC,103,108
Cc1cccc(N2CCN(c3ccc(C(=O)O)cc3NC(=O)c3cccc(Cl)c3)CC2C)c1 (configuration not stated),102,109
Cc1nnc(NC(=O)C(=O)c2cc(C)n(-c3ccc(C)c(C)c3)c2C)s1,107,102
CCN(CC)CCNC(=O)c1cn(CC)c2ccc(S(=O)(=O)N(C)C3CCCCC3)cc2c1=O,104,111
Cc1c(Cl)cccc1-n1nnc(-c2nc(-c3ccc4c(c3)OCO4)no2)c1C,98,102
CC(C)NC(=O)C(c1ccccc1)N1Cc2ccccc2C1=O (configuration not stated),103,105
O=c1c2ccccc2nc(/C=C\c2ccccc2F)n1-c1ccc(O)cc1,103,107
COC(=O)c1ccc(Cl)cc1NC(=O)Nc1nnc(N(C)C2CCCCC2)s1,110,116
O=C(CN1C(=O)c2cccnc2Sc2ccccc21)Nc1cc(F)ccc1F,108,112
CC(C)NC(=O)c1nn(C)c2c1CS(=O)(=O)c1ccccc1-2,112,108
O=C(CN1C(=O)CSc2ccc(S(=O)(=O)N3CCCC3)cc21)NCc1ccc(Cl)cc1,113,121
CCOc1cccc2sc(N(Cc3cccnc3)C(C)=O)nc12,107,113
COc1ccc2nc(NC(=O)c3nc(SCc4ccc(F)cc4)ncc3Cl)sc2c1,114,116
CC1=C(c2ccc(C(C)C)cc2)S(=O)(=O)N=C1N1CCN(c2ccc(F)cc2)CC1,108,114
CCc1cccc(NC(=O)CN2C(=O)CCc3cc(S(=O)(=O)N4CCOCC4)ccc32)c1,110,112
COc1ccc(C(=O)Nc2cc3c(cc2N2CCCC2)n(C)c(=O)c(=O)n3C)cc1OC,105,107
Cc1ccc2c(C)c(C(=O)NCC(c3ccc(Cl)cc3)N3CCOCC3)oc2c1 (configuration not stated),102,107
Cn1c(=O)c2c(nc(SCC(=O)Nc3ccc(OC(F)(F)F)cc3)n2Cc2cccc(C(F)(F)F)c2)n(C)c1=O,105,104
Cc1cc(F)ccc1NC(=O)C1CCCN(c2nnc(-n3c(C)ccc3C)s2)C1 (configuration not stated),102,104
C#CCSc1nc(-c2ccccc2)cc(-c2ccccc2)c1C#N,105,108
COc1cccc(C(=O)Nc2ccc(NC(=O)c3ccc(C(C)(C)C)cc3)cc2)c1,101,103
O=C(OCc1ccccc1)c1ccc(-c2nnn(Cc3ccccc3F)n2)cc1,106,106
Cc1ccc(CNC(=O)CSc2nc3c(sc4ccccc43)c(=O)n2CCCC(=O)NCCO)cc1,107,108
CC1=C(C(=O)Nc2ccccc2)C(c2ccc(C(=O)O)cc2)n2nc(SCC(=O)c3ccc(C)cc3)nc2N1 (configuration not stated),108,107
CCCCCCSc1nnc2c(n1)OC(C)Nc1ccc(Br)cc1-2 (configuration not stated),110,114
CCCCNC(=O)[C@@H](c1ccccc1)N1Cc2ccccc2C1=O,107,105
Cc1ccc(-c2onc(C)c2C)cc1S(=O)(=O)N1CCN(c2ccccc2F)CC1,107,110
O=C(NCc1nc(-c2ccccc2)no1)c1ccco1,106,114
O=c1cc(-c2ccccc2)nc(SCc2nc(-c3ccccc3Cl)no2)[nH]1,106,110
CC(=O)N1CCc2cc(S(=O)(=O)CCC(=O)N3CCN(c4ccccc4F)CC3)ccc21,110,107
COc1ccc(NC(=O)Cn2c(=O)oc3cc(S(=O)(=O)N4CCCCCC4)ccc32)cc1OC,106,110
COc1ccc(-c2cc(C)no2)cc1S(=O)(=O)NCc1ccc(OC(C)C)cc1,101,104
Cc1ccc(N(CC(=O)NCCc2ccccc2)S(=O)(=O)N(C)C)cc1,111,112
CCn1cc(S(=O)(=O)c2cc(C)cc(C)c2)c(=O)c2cc(F)c(N3CCOCC3)cc21,112,111
COc1ccc(-c2noc(-c3ccc(N4CCN(c5ccccc5OC)CC4)c([N+](=O)[O-])c3)n2)cc1,110,111
CC1CCN(c2nc3c(S(=O)(=O)c4cccc(Cl)c4)nnn3c3ccsc23)CC1,97,103
COc1ccc(CNC(=O)CN(c2cc(C)cc(C)c2)S(=O)(=O)c2c(C)[nH]c(=O)[nH]c2=O)cc1,107,108
Cc1ccccc1OCCSc1nc2ccc(NC(=O)c3ccccc3)cc2s1,107,108

# Part of the list above in order of molar mass, ascending:
SMILES,Polio RdRp inh,Polio RdRp inh intensity
O=C(NCc1nc(-c2ccccc2)no1)c1ccco1,106,114
O=c1cc(-c2ccccc2)nc(SCc2nc(-c3ccccc3Cl)no2)[nH]1,106,110
COc1ccc(-c2cc(C)no2)cc1S(=O)(=O)NCc1ccc(OC(C)C)cc1,101,104
Cc1ccc(-c2onc(C)c2C)cc1S(=O)(=O)N1CCN(c2ccccc2F)CC1,107,110
CCn1cc(S(=O)(=O)c2cc(C)cc(C)c2)c(=O)c2cc(F)c(N3CCOCC3)cc21,112,111

# The list continues.
SMILES,Polio RdRp inh,Polio RdRp inh intensity
Cc1ccc(Nc2c(-c3ccccn3)nc3ccc(Br)cn23)cc1,109,108
COc1ccc2cc(CNc3ccccc3)c(=O)n(CC(=O)Nc3ccc(C)cc3C)c2c1,111,111
Cc1cc2ccccc2n1CCNC(=O)c1cc(C(F)(F)F)cc(C(F)(F)F)c1,102,95
COc1cccc(CNC(=O)CCc2c(C)nn(-c3ccc(N4CCCC4)nn3)c2C)c1,107,103
CCOc1ccc(-c2nnc(SCC(=O)NCc3ccc(Cl)cc3)o2)cc1,98,106
CCOc1ccc(NC(=O)CCNS(=O)(=O)c2ccc3c(c2)oc(=O)n3C)cc1,102,103
CCOC(=O)c1cc(OC(=O)c2cccc(Cl)c2)n(-c2ccccc2)n1,102,85
COc1ccc(Br)cc1CNC(=O)CSc1n[nH]c(-c2ccccc2)n1,104,107
COC(=O)c1ccccc1NC(=O)C1(c2cccs2)CCOCC1,113,112
CCOCCCn1c(=N)c(C(=O)NC2CCCCC2)cc2c(=O)n3ccccc3nc21,111,114
COc1ccc(NC(=O)CCCn2nc(C)c3sc4ccccc4c3c2=O)cc1,114,112
COc1cccc(C(=O)NCc2ccc3c(c2)CCN3C(=O)c2ccncc2)c1,104,106
COc1cccc(CNC(=O)Cn2ncc3c4ccccc4n(C)c3c2=O)c1,112,114
CCn1c(CNC(=O)c2ccc(OC)cc2)nnc1SCC(=O)Nc1cccc(C)c1C,104,103
CCc1ccc2ncc(C(=O)c3ccc(C)c(C)c3)c(N3CCC(C(N)=O)CC3)c2c1,105,103
CC(=O)c1ccc(N2CCN(C(=O)CCCCn3c(=O)[nH]c4ccsc4c3=O)CC2)cc1,109,112
CC1CCN(c2oc(-c3cccs3)nc2S(=O)(=O)c2ccccc2)CC1,106,104
Cc1ccc(NC(=O)C2CCCN(S(=O)(=O)c3c(C)nn(C)c3C)C2)c(C)c1 (configuration not stated),105,104
Cc1ccc2nc(N3CCN(c4cccc(C)c4C)CC3)c3nnnn3c2c1,114,117
Cc1cccc(N2CCN(C(c3ccccc3)c3nnc(-c4ccccc4Cl)o3)CC2)c1C (configuration not stated),102,102
CCOC(=O)C1CCN(C(=O)C2CCN(C3=NS(=O)(=O)C(c4ccc(C)cc4)=C3CC)CC2)CC1,115,111
O=C(NCc1ccccc1)c1ccc(NC(=O)N2CC3CCCN3c3ccccc32)cc1 (configuration not stated),108,108
COc1ccc(OCc2ccc(-c3nc(C#N)c(N4CCN(c5cccc(Cl)c5)CC4)o3)o2)cc1,110,107
CCc1ccc(NC(=O)c2ccc(F)c(S(=O)(=O)N3CCN(c4ccc(OC)cc4)CC3)c2)cc1,112,115
CCOc1nc(-c2ccccc2)ccc1-c1noc(-c2ccc(C)cc2)n1,107,112
CCOC(=O)C1CCC(CN(Cc2cccc(Br)c2)S(=O)(=O)c2ccc(C)cc2)CC1 (configuration not stated),100,100
CCOc1ccc(-c2nonc2NC(=O)c2ccccc2C)cc1,112,104
COc1ccc(NC(=O)c2oc3ccccc3c2NC(=O)c2cccc(F)c2)c(OC)c1,104,107
CCC1CN(C(=O)N2CCC(C(=O)NCc3cccc(C)c3)CC2)c2ccccc2O1 (configuration not stated),106,112
Cc1ccc(CNC(=O)CSC2=Nc3ccccc3C3=NC(C)C(=O)N23)cc1 (configuration not stated),94,96
CCCCNC(=O)C1CCC(Cn2c(=O)c3sccc3n(Cc3ccccc3)c2=O)CC1 (configuration not stated),100,97
Cc1nc2ccc(S(=O)(=O)NCC(=O)Nc3ccc(C)c(Cl)c3)cc2s1,108,109
COc1ccccc1CNC(=O)C(=O)NCC(c1cccs1)S(=O)(=O)c1ccccc1 (configuration not stated),107,105
CCOc1ccc(-c2cc(OC(=O)c3ccccc3)c3c(C)oc(C)c3c(=O)c2)cc1,114,127
COc1cccc(CNC(=O)c2ccc(-c3nc(CS(=O)c4ccccc4)c(C)o3)cc2)c1 (configuration not stated),111,116
Cc1cccc(CNC(=O)C2CCN(c3nnc(-n4c(C)ccc4C)s3)CC2)c1,106,107
CCOc1cc(C(=O)N2CC(=O)Nc3ccc(F)cc3C2c2ccccc2)cc(OCC)c1OCC (configuration not stated),104,106
Cc1ccccc1-c1noc(-c2cc(-c3ccc(F)cc3)n[nH]2)n1,110,110
CCc1cccc(CC)c1NC(=O)c1cc(S(=O)(=O)N2CCc3ccccc32)cn1C,105,111
COc1ccc(NC(=O)c2[nH]nc3c2CSc2ccccc2-3)c(OC)c1,105,109
Cc1ccc(C)c(N2CCN(CCCNc3ncnc4onc(-c5ccc(Cl)cc5)c34)CC2)c1,100,105

# This is a subset (hit frequency here may not be typical).
